Source: PubChem (National Center for Advancing Translational Sciences (NCATS))
nsP2pro primary – Primary qHTS for inhibitors of NSP2Pro chikungunya virus (CHIKV). 1.1% of 31,000 active. Polyprotein P1234 (Chikungunya virus (strain S27-African prototype)), Q8JUX6. FRET peptide cleavage, nsP2pro, fluorescence 1 h. Potency, µM (doses to about 24.9 µM), for the others: top-dose activity change, negative = inhibition, most hits filed as inhibitors; active means well fitted inhibition curve with a large enough effect; inconclusive means small, poorly fitted or top-dose-only effect; inactive means no such curve, though single readings can be large or run the other way; further: nearly all actives have a fitted effect of over 60% in size; a reference inhibitor and vehicle were the controls
Starred values were filed as active, the others as inactive; & = joins results of further samples; [ ] = dose if it differs, or a comment. On the % scale 0 is the no-effect control and ±100 the full control effect; potency means the concentration at half of the fitted maximal effect. The list is partial; the hit share may differ from the screen's.

What do the screens show for `OCCN1CCN(CC/C=C2/c3ccccc3Sc3ccc(C(F)(F)F)cc32)CC1`?
nsP2pro primary: 44.4%[activator]

What do the screens show for `O=C(O[C@H]1C[N+]2(CCCOc3ccccc3)CCC1CC2)C(O)(c1cccs1)c1cccs1`?
nsP2pro primary: 2.4%

What do the screens show for `CCc1ccccc1NC(=O)CCS(=O)(=O)c1cccc2nonc12`?
nsP2pro primary: -24.3%

How did Cc1ccc(N(Cc2cccs2)C(=O)COc2ccccc2[N+](=O)[O-])cc1 do in these assays?
nsP2pro primary: -17.1%

How did O=C(CN1C(=O)C(c2ccccc2)=NC12CCCC2)NC1CCCC1 do in these assays?
nsP2pro primary: 2.5%

What do the screens show for `Clc1ccc(CSc2nc3ncc(Br)cc3[nH]2)cc1`?
nsP2pro primary: -6.8%

Results for O=C(O)c1ccnc2c(O)cccc12 ?
nsP2pro primary: inactive

Results for N#CC1(c2ccccc2)CCN(C(=O)c2cn(-c3ccccc3)nn2)CC1 ?
nsP2pro primary: 2.3%

How did CCOc1ccc(CNC(=O)c2cc(=O)[nH]c3ccc(S(=O)(=O)N4CCCCC4)cc23)cc1 do in these assays?
nsP2pro primary: -13.8%

How did COc1ccc(OC)c(-n2c3c(cc(-c4nc(-c5ccc(Cl)cc5)cs4)c2=O)C(=O)CC(C)(C)C3)c1 do in these assays?
nsP2pro primary: -8.6%

What do the screens show for `COc1ccc(-c2cc(C(=O)N3C[C@@H](CN(C)C)[C@@H](CO)C3)[nH]n2)cc1`?
nsP2pro primary: 0.2%

What do the screens show for `Cn1cnc(S(=O)(=O)N2CC(c3nc(-c4ccncc4)no3)C2)c1`?
nsP2pro primary: 2.6%

Results for CCOC(=O)c1cccc(NC(=O)C2=CC(C)(C)Oc3ccc(OC)cc32)c1 ?
nsP2pro primary: -2.2%

What do the screens show for `COc1cccc(OCCCCn2c(-c3ccc(Cl)cc3)nc3ccccc3c2=O)c1`?
nsP2pro primary: -12.7%

How did Cc1ccc(C2=NC3(CCN(C(=O)c4n[nH]c5c4CCCC5)CC3)ON2)cc1 do in these assays?
nsP2pro primary: -2.3%

What do the screens show for `CC(O)(CC(=O)O)CC(=O)O[C@@H]1[C@@H](O)[C@H](OCCc2ccccc2)O[C@H](CO)[C@H]1O` (some centres not stated)?
nsP2pro primary: 3.3%[10 µM]

How did O=C(CCc1nc2cccnc2n1Cc1ccccc1)NCc1cccc(Cl)c1 do in these assays?
nsP2pro primary: -4.4%

Results for O=c1c2ccccc2nc(/C=C/c2cccc3ccccc23)n1-c1ccc(F)cc1F ?
nsP2pro primary: -19.7%

Results for Clc1nc(CN2CCOCC2)nc2sc3c(c12)CCCC3 ?
nsP2pro primary: inactive

How did C[C@H]1C[C@H]2[C@@H]3CCC4=CC(=O)C=C[C@]4(C)[C@H]3C(=O)C[C@]2(C)[C@@]1(O)C(=O)CO do in these assays?
nsP2pro primary: -2.8%

Overlap with the part before: 3 entries; new compounds follow.
Results for O=c1c2ccccc2nc(/C=C/c2cccc3ccccc23)n1-c1ccc(F)cc1F ?
nsP2pro primary: -19.7%

Results for Clc1nc(CN2CCOCC2)nc2sc3c(c12)CCCC3 ?
nsP2pro primary: inactive

How did C[C@H]1C[C@H]2[C@@H]3CCC4=CC(=O)C=C[C@]4(C)[C@H]3C(=O)C[C@]2(C)[C@@]1(O)C(=O)CO do in these assays?
nsP2pro primary: -2.8%

How did COc1c(C)c(OCC(O)C(C)(C)O)cc2c1CNC2=O (configuration not stated) do in these assays?
nsP2pro primary: -17.0%

Results for Cc1nn(C)c(C)c1CCC(=O)N1CCC(C2CCN(S(C)(=O)=O)CC2)C1 (configuration not stated) ?
nsP2pro primary: 2.3%

How did O=c1cc(-c2cccnc2)oc2c(NCc3ccc(F)cc3)nccc12 do in these assays?
nsP2pro primary: -16.4%[39.2 µM]

How did O=C(NCc1ccccc1)[C@@H]1Cc2nc[nH]c2CN1Cc1cccc(OC(F)(F)F)c1 do in these assays?
nsP2pro primary: inactive

Results for O=c1[nH]c2ccccc2n1C1CCN(CCCC(c2ccc(F)cc2)c2ccc(F)cc2)CC1 ?
nsP2pro primary: 37.2%&-12.6%

How did CC(C)CC(=O)N1CCCC(Cc2nc(C3CCOCC3)no2)C1 (configuration not stated) do in these assays?
nsP2pro primary: 4.9%

How did Cc1ccc(CNC(=O)C2CCN(c3nc4ccccc4n(C)c3=O)CC2)cc1 do in these assays?
nsP2pro primary: -17.6%

What do the screens show for `Cc1ccc([S+](=O)([O-])NC[C@@H]2CC[C@H]3C[C@@H]2C3(C)C)cc1`?
nsP2pro primary: inactive

What do the screens show for `CC(=O)Nc1ccc(S(=O)(=O)NC2(C(F)(F)F)C(=O)Nc3c2c(=O)[nH]c(=O)n3-c2ccc(C)cc2)cc1` (configuration not stated)?
nsP2pro primary: -17.9%

What do the screens show for `OC[C@@H](O)[C@H](O)[C@H](O)[C@@H](O)CO`?
nsP2pro primary: -8.0%

How did COc1ccc(-c2ccc3ncnc(N(C)Cc4csc(C)n4)c3c2)cc1OC do in these assays?
nsP2pro primary: -2.9%

How did CC(C)n1cnnc1C1CCCN1C(=O)Nc1ccccc1 (configuration not stated) do in these assays?
nsP2pro primary: -1.9%

What do the screens show for `COc1ccccc1-c1nc(-c2ccc(C(=O)O)cc2)no1`?
nsP2pro primary: inactive

What do the screens show for `Cc1nc(C)c(C(=O)NCCc2ncc(C)n2C2CC2)s1`?
nsP2pro primary: inactive

Results for COc1cc(CCCO)ccc1O[C@@H]1O[C@H](CO)[C@@H](O)[C@H](O)[C@H]1O ?
nsP2pro primary: 32.7%

How did O=C(NCc1nc2ccccc2c(=O)n1-c1ccc(F)cc1)Nc1ccc(Cl)c(C(F)(F)F)c1 do in these assays?
nsP2pro primary: 26.1%

Results for C=C1C[C@]23C[C@H]1CC[C@H]2[C@]1(C)CC[C@H](O)[C@@](C)(C(=O)O)[C@H]1[C@@H]3C(=O)O ?
nsP2pro primary: 7.4%

How did O=C(O)c1sc2c(c1-c1nc3ccccc3s1)CCNC2 do in these assays?
nsP2pro primary: -3.9%

What do the screens show for `Cc1ccc(OCCn2c(CCNC(=O)/C=C/c3ccccc3)nc3ccccc32)cc1`?
nsP2pro primary: -1.6%

How did CNC(=O)c1cc(C2CC2)nc2c1c(C1CCCN1C(=O)c1ccc(C(F)(F)F)cc1)nn2C (configuration not stated) do in these assays?
nsP2pro primary: 1.3%

Results for C[C@]12CCC3[C@@H](CC[C@H]4NC(=O)C=C[C@]34C)[C@@H]1CC[C@@H]2C(=O)Nc1cc(C(F)(F)F)ccc1C(F)(F)F (some centres not stated) ?
nsP2pro primary: -9.6%&-2.0%

How did CCc1ccccc1NC(=O)Cn1c(=O)n(C(C)C)c(=O)c2oc3ccccc3c21 do in these assays?
nsP2pro primary: -15.9%

Results for O=C(O)C1=NOC2CN(Cc3coc(-c4ccccc4)n3)CC12 (configuration not stated) ?
nsP2pro primary: -21.1%

Results for COc1ccc(S(=O)(=O)N2CCN(C(=O)C3COc4ccccc4O3)CC2)cc1 (configuration not stated) ?
nsP2pro primary: -3.0%

Results for OCC=Cc1ccccc1 ?
nsP2pro primary: 1.0%

What do the screens show for `Cc1ccc(S(=O)(=O)Nc2ccc(C(=O)Nc3nc(-c4ccc(Cl)cc4)cs3)cc2)cc1`?
nsP2pro primary: -3.6%

What do the screens show for `O=C(Nc1ccc(Br)cc1)c1ccc(Cl)c(S(=O)(=O)N2CCCCCC2)c1`?
nsP2pro primary: -18.9%

How did O=C(c1ccc2c(c1)CCCC2)N1CCN(c2nc3ccc(F)cc3s2)CC1 do in these assays?
nsP2pro primary: -25.2%

How did O=C(NCc1cc2n(n1)CCCN(C1CCCCC1)C2)c1cccc(F)c1 do in these assays?
nsP2pro primary: inactive

How did COc1ccccc1N1CCN([C@@H]2[C@H](O)[C@H](CO)O[C@@H]2CNC(=O)c2ccccc2)CC1 do in these assays?
nsP2pro primary: -13.3%

How did Cc1cccc(NC(=O)c2c(C)cc(C)nc2SCC(=O)Nc2c(C)cc(C)cc2C)c1 do in these assays?
nsP2pro primary: -19.3%

Results for COc1ccc2nc3oc(C(=O)N(C)c4ccc(Cl)cc4)cc3cc2c1 ?
nsP2pro primary: -27.8%

How did Cc1cccc(N2CCN(C(=O)c3cc(S(=O)(=O)N(C)C)ccc3N3CCCC3)CC2)c1C do in these assays?
nsP2pro primary: 7.1%

Results for CCCNC(=O)N1CCC(Cc2ccc(CCNC(C)=O)cc2)CC1 ?
nsP2pro primary: -11.1%

How did CC(=O)Nc1sc2c(c1-c1cc3ccccc3s1)CCNC2 do in these assays?
nsP2pro primary: 3.1%

Results for CCc1cc(CC[C@]2(C3CCCC3)CC(O)=C(Cc3nc4nc(C)cc(C)n4n3)C(=O)O2)cc(CC)n1 ?
nsP2pro primary: 1.3%

What do the screens show for `CCc1cc(NCC(c2ccc(C)o2)N2CCOCC2)n2nccc2n1` (configuration not stated)?
nsP2pro primary: -18.0%

Results for O=C(Nc1ccc(S(=O)(=O)C(F)(F)F)cc1)C1=CCN(c2ncccc2C(F)(F)F)CC1 ?
nsP2pro primary: inconclusive

What do the screens show for `Cc1cc(N2CCN(c3cccc(C(F)(F)F)c3)CC2)n2nc(-c3ccccc3C)nc2n1`?
nsP2pro primary: -24.5%

What do the screens show for `CCOc1ccc(C(=O)NCC(c2ccc3c(c2)OCO3)N2CCN(c3ccc(F)cc3)CC2)cc1` (configuration not stated)?
nsP2pro primary: -13.7%

Among those listed so far, these contain an aryl thioether with sulfur outside any ring:
What do the screens show for `Clc1ccc(CSc2nc3ncc(Br)cc3[nH]2)cc1`?
nsP2pro primary: -6.8%

How did Cc1cccc(NC(=O)c2c(C)cc(C)nc2SCC(=O)Nc2c(C)cc(C)cc2C)c1 do in these assays?
nsP2pro primary: -19.3%

Other compounds follow.
Results for COc1ccc(C2CC(=O)c3c(C)nc(N4CCN(C=O)CC4)nc3C2)c(OC)c1 (configuration not stated) ?
nsP2pro primary: -22.6%

How did Cc1ccc(CNC(=O)c2ccc(-c3nc(CN4CCc5ccccc54)c(C)o3)cc2)cc1 do in these assays?
nsP2pro primary: -17.5%

How did Cc1ccc(COC(=O)N2CC[C@@H](CNc3ncccn3)[C@@H](F)C2)cc1 do in these assays?
nsP2pro primary: 14.2%

Results for CN1CC[C@@H](NC(=O)Nc2ccc(C#N)cc2)C[C@@H]1c1nc2ccccc2[nH]1 ?
nsP2pro primary: 15.9%&29.6%

Results for COc1ccc(CNC(=O)[C@@H](C)C2CC[C@@]3(C)CC[C@H](NC(=O)COc4ccccc4)[C@@H](C)[C@@H]3[C@H]2O)cc1 (some centres not stated) ?
nsP2pro primary: 3.1%

Results for COc1ccc(CN2Cc3[nH]cnc3C[C@H]2c2nc(Cc3ccccc3)no2)cc1 ?
nsP2pro primary: inactive

What do the screens show for `CC(=O)N(CC(=O)N(C)C)c1ccccc1`?
nsP2pro primary: 23.6%

What do the screens show for `CS(=O)(=O)c1ccc(C2=C(c3ccccc3)C(=O)OC2)cc1`?
nsP2pro primary: 1.9%&-2.2%

How did O=C(c1ccc(CS(=O)(=O)c2c(Cl)cccc2Cl)o1)N1CCN(c2ccccc2)CC1 do in these assays?
nsP2pro primary: -1.9%

Results for CC(C)(C)NS(=O)(=O)c1cccc(-c2nnc(SCc3ccc(C(=O)O)cc3)n2-c2ccccc2)c1 ?
nsP2pro primary: -2.6%

What do the screens show for `CCCN(CCC)CCc1ccc(OC)c(OCCc2ccccc2)c1`?
nsP2pro primary: -5.9%

Results for CCNC(=O)N[C@H]1[C@H](O)[C@H](O)C[C@@H]1c1cncnc1 ?
nsP2pro primary: -0.1%[39.2 µM]

Results for COc1ccc(CCNS(=O)(=O)c2ccc3c(c2)CC(C)N3C(=O)C2CCC2)cc1OC (configuration not stated) ?
nsP2pro primary: -11.2%

How did O=C(CNC(=O)C1CCCC1)OC(C(=O)Nc1cc(C(F)(F)F)ccc1Cl)c1ccccc1 (configuration not stated) do in these assays?
nsP2pro primary: inactive

What do the screens show for `Cc1ccc(OCCn2c(CCNC(=O)c3ccc(C)cc3)nc3ccccc32)cc1`?
nsP2pro primary: -24.2%

Results for C=C(CO)C(=O)O[C@H]1C[C@@]23O[C@@H]2CC/C(=C/[C@H]2OC(=O)C(=C)[C@H]12)CO[C@H]3O ?
nsP2pro primary: inconclusive

How did CCCCNC(=O)NS(=O)(=O)c1ccc(C)cc1 do in these assays?
nsP2pro primary: 0.6%

How did CCc1c(C)sc2c1CCN(C(=O)Nc1ccccc1C(F)(F)F)C2c1ccccc1 (configuration not stated) do in these assays?
nsP2pro primary: -31.5%

What do the screens show for `Cc1cccc(Cn2c(=O)n(Cc3ccccc3)c(=O)c3sc4ccccc4c32)c1`?
nsP2pro primary: -33.8%

How did CCN(c1ccccc1)c1ncnc2c1cnn2-c1ccc(C)cc1C do in these assays?
nsP2pro primary: -27.9%

Structures shown so far containing bromine:
What do the screens show for `Clc1ccc(CSc2nc3ncc(Br)cc3[nH]2)cc1`?
nsP2pro primary: -6.8%

What do the screens show for `O=C(Nc1ccc(Br)cc1)c1ccc(Cl)c(S(=O)(=O)N2CCCCCC2)c1`?
nsP2pro primary: -18.9%

The list goes on:
How did C[C@@H]1O[C@@H](O[C@@H]2/C=C/C=C/C=C\C=C\C[C@H](C)OC(=O)/C=C/[C@H]3O[C@@H]3C[C@H](O)C[C@]3(O)C[C@@H](O)[C@@H](C(=O)O)[C@H](C2)O3)[C@H](O)[C@H](N)[C@@H]1O do in these assays?
nsP2pro primary: -5.8%[10 µM]

Results for Nc1nonc1-c1nc2cnccc2n1C1CCCCC1 ?
nsP2pro primary: inconclusive

How did COc1cccc(-c2nc3c(c(SCc4ccccc4Cl)n2)Cc2c(CO)cnc(C)c2O3)c1 do in these assays?
nsP2pro primary: -13.9%

What do the screens show for `CCOC(=O)C1CCN(c2ncnc3c2nnn3C)CC1`?
nsP2pro primary: -20.8%
